Assay outcomes deposited in PubChem BioAssay by several laboratories.
A1 inh = caspase 3/7 activation in MEF A1-2A-BIM cells, primary screen, A1 inhibitor project, cell-based, luminescence, HTS; Caspase-Glo 3/7 luminescence, 3 h; percent of clofoctol response, vehicle zero; caspase activation, % (no concentration beside the values); hit rate 0.066% among 330,000;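 active = over half of replicate activation scores above 10%, or exactly half above 10 with the replicate mean above 10; inconclusive = replicate mean below 10 yet half the replicates above 10; inactive = over half of replicates below 10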;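 note: wells of about 30 µL received 50 nL stock; many hits fall short of the cut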
LANA-H2A inh = blockers of LANA interaction with H2A/H2B – biochemical, FP readout, HTS, primary screen. cell-free LANA-H2A/H2B peptide, fluorescence polarization. hit rate 0.6% among 320,000. AID 2629, 2010. inhibition, % (test concentration not listed). Protein LANA1 (Human herpesvirus 8 type P (isolate GK18)), Q9QR71; in the data active = inhibition mostly above about 10%, no sharp cut-off; inactive = mostly below about 6.7%;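 note: stock transfer was 7.5 nL into about 10 µL; 0% = median of vehicle wells and 100% = median of positive control wells; one replicate is shown; the record names a cut of 25% in any replicate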
Target sequence (Q9QR71 whole entry, looked up): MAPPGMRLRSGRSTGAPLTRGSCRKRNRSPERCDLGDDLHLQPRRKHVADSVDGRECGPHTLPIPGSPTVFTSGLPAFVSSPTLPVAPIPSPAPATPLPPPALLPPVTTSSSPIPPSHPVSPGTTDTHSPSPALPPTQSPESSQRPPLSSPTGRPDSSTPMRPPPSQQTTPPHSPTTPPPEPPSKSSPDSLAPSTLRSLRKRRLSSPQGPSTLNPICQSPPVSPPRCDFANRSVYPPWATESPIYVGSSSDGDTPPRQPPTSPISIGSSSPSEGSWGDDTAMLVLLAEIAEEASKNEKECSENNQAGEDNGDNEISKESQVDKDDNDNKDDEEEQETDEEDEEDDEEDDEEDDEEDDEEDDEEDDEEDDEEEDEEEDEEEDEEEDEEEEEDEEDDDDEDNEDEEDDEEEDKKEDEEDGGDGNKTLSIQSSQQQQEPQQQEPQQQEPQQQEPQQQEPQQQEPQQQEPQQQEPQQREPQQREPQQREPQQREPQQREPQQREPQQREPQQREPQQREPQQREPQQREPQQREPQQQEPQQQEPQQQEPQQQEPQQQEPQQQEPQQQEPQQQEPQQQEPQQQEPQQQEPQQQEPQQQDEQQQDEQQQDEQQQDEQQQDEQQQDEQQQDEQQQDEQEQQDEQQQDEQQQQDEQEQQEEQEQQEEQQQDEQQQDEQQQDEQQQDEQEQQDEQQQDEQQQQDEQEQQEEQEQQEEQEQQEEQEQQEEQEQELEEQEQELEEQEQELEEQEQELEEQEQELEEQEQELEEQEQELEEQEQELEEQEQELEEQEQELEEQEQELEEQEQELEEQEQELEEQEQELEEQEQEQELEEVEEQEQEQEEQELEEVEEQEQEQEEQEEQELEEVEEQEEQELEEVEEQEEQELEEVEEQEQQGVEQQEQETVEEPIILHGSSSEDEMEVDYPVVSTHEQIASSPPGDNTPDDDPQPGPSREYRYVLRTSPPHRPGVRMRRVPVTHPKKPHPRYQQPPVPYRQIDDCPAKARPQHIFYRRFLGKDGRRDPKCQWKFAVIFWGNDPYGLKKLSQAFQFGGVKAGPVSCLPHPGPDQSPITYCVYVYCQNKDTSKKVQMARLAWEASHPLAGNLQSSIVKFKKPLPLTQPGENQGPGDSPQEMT
Beta apoptosis = inhibitors of cytokine-induced beta cell apoptosis, primary screen, luminescence | INS-1E cytokine-induced death, ATP luminescence, 48 h; percent of positive-control rescue, neutral wells zero | AID 435005, 2010 | hit rate 0.8% among 300,000 | protection from apoptosis, % (test concentration not listed);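 active = all replicates at 75% or more, or half of them and the mean; inconclusive = half reach 75% but not the mean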;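 note: 0% = cytokine-treated negative control wells and 100% = positive control rescue; higher means more ATP so stronger rescue from cytokine killing; wells of about 40 µL received 100 nL stock; the first replicate is given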
UCH37 inh = inhibitors of human UCH37 deubiquitinase, primary screen, biochemical, Ub-AMC cleavage, fluorescence; Ubiquitin carboxyl-terminal hydrolase isozyme L5 (Homo sapiens), Q9Y5K5; purified proteasome/UCH37; inhibition, % (test concentration not listed); hit rate 0.33% among 330,000; AID 588478, 2011;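 active = mean of two replicates above 20%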;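 note: 0% = compound-free wells with enzyme and 100% = wells lacking proteasome; stock transfer was 100 nL into about 20 µL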
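System: Proteasome-associated human UCH37 deubiquitinase; Input: 0.15 nM proteasome in added enzyme buffer; Also added: Ub-AMC substrate from 1 µM stock; Incubation: 30 min compound-proteasome preincubation then 25 min substrate reaction, room temperature; Detection: fluorescence, ex 355 nm, em 460 nm; Read-out: % inhibition of Ub-AMC cleavage fluorescence; Benchmarks: no-proteasome and no-compound wells.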
T cruzi inh = inhibitors of intracellular T. cruzi growth, primary screen, luminescence, NIH3T3 host cells | T. cruzi beta-gal in NIH3T3, 90 h | inhibition, % (concentration not given with the values) | AID 1885, 2009 | hit rate 1.4% among 300,000;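 active = mean inhibition across valid replicates above about 55%, limit read from the data; inconclusive = mean below that limit but half or more replicates reach it; inactive = mean below it, under half of replicates reach it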;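 note: signal also drops with host cell toxicity which is not excluded here; 0% = plate median of DMSO wells and 100% = zero luminescence signal; higher percent means less beta-gal luminescence so fewer parasites; stock transfer was 50 nL into about 50 µL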
Calb FLC = C. albicans growth inhibition with fluconazole, primary screen, CaCi-2 strain, Alamar Blue fluorescence. hit rate 0.57% among 300,000. growth inhibition, % (test concentration not listed). AID 1979, 2009. C. albicans CaCi-2 (fluconazole-resistant clinical isolate) + fluconazole, 48 h;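 active = most replicates above 75%; inconclusive = exactly half above 75%; inactive = most below 75%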;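 note: all wells also contain fluconazole at 8 µg/ml as a sub-toxic cotreatment; 0% = median of DMSO wells and 100% = median of geldanamycin control wells; wells of about 8 µL received 7.5 nL stock; the first replicate is given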
Beta2AR agonist = beta2AR agonists driving receptor internalization, primary screen, cell-based, FAP fluorogen, flow cytometry | Beta-2 adrenergic receptor (Homo sapiens), P07550 | Am2.2-beta2AR cells; reference of the scale not given here | response, % (test concentration not listed) | hit rate 0.43% among 340,000;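 active = response above a set limit, near 3 SD of response in nonfluorescent compounds, cut at about 42% in these data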;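 note: stock transfer was 100 nL into about 11 µL; a reference agonist was the positive control; negative values mostly stem from fluorescent compounds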
RanGTP-Imp inh = inhibitors of RanGTP-importin-beta interaction, primary screen, biochemical, FRET, CFP-Ran, YFP-importin-beta, homogeneous. cell-free CFP-Ran/YFP-importin-beta FRET ratio. inhibition, % (no concentration beside the values). hit rate 1.1% among 300,000;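 active = most replicates above 15%; inconclusive = exactly half above 15%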;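 note: 0% = DMSO wells and 100% = Ran loaded with GDP instead of GTP; wells of about 40 µL received 100 nL stock; the first replicate is given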
The depositor's hits bear a star; ? = inconclusive; . = no result given. The order is random. Share with any hit: about 4.3%.

SMILES	A1 inh	LANA-H2A inh	Beta apoptosis	UCH37 inh	T cruzi inh	Calb FLC	Beta2AR agonist	RanGTP-Imp inh
NC(=O)c1cnn2c(C(F)(F)F)cc(-c3ccc(F)cc3)nc12	0.1	1.0	.	-41	12	7	-4	3.2
COc1ccccc1Nc1ncnc2ccc(C)cc12	-0.1	3.8	4	-2.7	18	16	-6	-0.4
O=C(CSc1nnc(-c2ccco2)o1)N1CCCCC1	0.0	4.0	0	3.0	-9	-24	-19	-1.1
O=C(/C=C/c1ccccc1)OCC(=O)c1c[nH]c2ccccc12	0.9	5.7	-9	5.2	.	.	1	.
Cc1cc(NC(=O)COc2ccc(Cl)cc2Cl)n(CCC#N)n1	0.7	-6.2	4	2.3	5	8	-3	0.3
Cc1ccc(C(C)C)cc1OCC(=O)N/N=C/c1ccc2c(c1)OCCO2	0.1	-4.1	-8	.	-15	-3	-4	?
COc1ccc(CN(C)S(=O)(=O)c2nnc(NC(=O)c3cccc(OC)c3)s2)cc1	-0.7	-2.1	-1	-4.8	-13	18	6	2.2
CC1(C)Nc2ccccc2C(=O)N1NC(=O)c1ccccc1	0.5	-2.5	0	-100	3	-8	-5	2.7
COc1ccc(OC)c(-c2cnc(OC(C)(C)C)nc2OC(C)(C)C)c1	-0.3	0.7	21	2.1	-36	-3	4	9.2
COc1ccc(NC(=O)CCCN2C(=O)CN(C)C2=O)cc1Cl	0.9	-1.9	2	1.7	.	.	2	.
CCOCC(=O)OCC(=O)NC12CC3CC(CC(C3)C1)C2	-0.3	-0.9	-2	4.9	-6	-36	3	-1.2
COc1cc(S(=O)(=O)N2CCCC3(CCCCC3)C2)ccc1-n1cnnn1	0.5	5.1	4	1.3	-19	40	16	-1.9
O=C(COC(=O)C1COc2ccccc2O1)Nc1ccc(Cl)cc1 (stereo not given)	0.1	3.5	-5	5.8	.	.	-3	.
COc1ccc(C(=O)CC(=O)C(=O)Nc2cc(OC)ccc2OC)cc1	0.4	0.9	5	5.2	1	-4	5	1.7
COC(=O)C1CSC(C)(C)C(=O)N1 (stereo not given)	0.5	-3.4	-8	-1.5	-16	13	4	1.8
C=CCOc1c2ccc(C(=O)NCc3ccc(OC)cc3)cc2nn1C	-0.9	-10	-3	-27	-2	3	-12	-1.5
Cc1nc(S(=O)(=O)N2CCN(C3c4ccccc4-c4ccccc43)CC2)cn1C	0.7	4.6	-3	6.6	-10	9	-2	4.1
COc1ccc(OC)c(NC(=O)COC(=O)COc2ccc(Nc3ccccc3)cc2)c1	-1.1	4.8	8	5.4	.	.	-4	.
O=C(Nc1cccnc1)c1ccc(NS(=O)(=O)c2cccc([N+](=O)[O-])c2)cc1	0.2	0.6	-4	1.3	15	3	1	?
COc1cc(C(c2c(C(=O)O)[nH]c3ccccc23)c2c(C(=O)O)[nH]c3ccccc23)ccc1OCc1ccccc1	-0.6	3.8	5	3.2	-9	3	-4	4.4
O=C(Nc1ccccc1N1CCOCC1)c1cc2ccccc2o1	-1.7	3.4	3	1.4	5	2	2	5.8
COc1ccc(C(C(=O)NCCC(C)C)N(CCCO)C(=O)c2snc(C(N)=O)c2N)cc1OC (stereo not given)	-0.5	0.9	-6	-54	-10	4	-8	-1.4
O=c1c2ccccc2nc(/C=C/c2c[nH]c3ccccc23)n1CCO	0.0	-2.6	5	-12	0	21	11	-0.2
O=C(Cc1ccc(Br)cc1)N1CCN(c2ccccn2)CC1	-1.0	-2.1	-6	-2.7	-5	4	6	5.4
COc1ccc(-c2csc(NC(=O)CN3C(=O)CCC3=O)n2)cc1OC	1.9	-3.7	-1	0.2	-25	-4	2	1.8
CC(=O)c1sc(NC(=O)COc2c(C)cc(Cl)cc2C)nc1C	0.3	-5.7	-6	4.0	-4	17	.	2.7
CC(OC(=O)c1c[nH]c2ccccc12)C(=O)N1CCCC1 (stereo not given)	1.0	3.3	-6	.	.	.	8	.
CCCOc1ccc(/C=N/NC(=O)CN2CCCCC2)cc1OCC	0.4	-3.5	-5	.	1	-22	-6	3.5
CC(=O)c1ccc(OCC(=O)OCC(=O)NCc2ccco2)cc1	0.7	-0.4	-3	0.7	.	.	-2	.
Cc1nc(Nc2ccccc2)sc1C(=O)Nc1ccccc1	-0.1	-5.6	10	-0.5	25	25	4	3.6

Brought forward from above: 5 compounds, then new ones.
SMILES	A1 inh	LANA-H2A inh	Beta apoptosis	UCH37 inh	T cruzi inh	Calb FLC	Beta2AR agonist	RanGTP-Imp inh
CC(=O)c1sc(NC(=O)COc2c(C)cc(Cl)cc2C)nc1C	0.3	-5.7	-6	4.0	-4	17	.	2.7
CC(OC(=O)c1c[nH]c2ccccc12)C(=O)N1CCCC1 (stereo not given)	1.0	3.3	-6	.	.	.	8	.
CCCOc1ccc(/C=N/NC(=O)CN2CCCCC2)cc1OCC	0.4	-3.5	-5	.	1	-22	-6	3.5
CC(=O)c1ccc(OCC(=O)OCC(=O)NCc2ccco2)cc1	0.7	-0.4	-3	0.7	.	.	-2	.
Cc1nc(Nc2ccccc2)sc1C(=O)Nc1ccccc1	-0.1	-5.6	10	-0.5	25	25	4	3.6
CCOc1cc(N2CCOCC2)c(OCC)cc1NC(=O)CN1C(=O)NC2(CCc3ccccc32)C1=O (stereo not given)	1.0	-7.5	1	3.4	9	38	-3	0.6
COc1ccc(-c2nc(-c3ccc(NC(=O)c4ccncc4)cc3)no2)cc1OC	-1.0	3.5	.	-1.0	49	1	26	8.6
CN(C)CCOC(=O)C1(c2ccccc2)CCCC1	-1.6	0.9	-3	3.4	7	-8	6	-0.1
CCOC(=O)c1ccc(S(=O)(=O)N2CCN(CC(=O)NC(=O)NC(C)(C)C)CC2)cc1	-0.5	0.3	1	-0.1	-12	-16	5	2.8
CC(=O)NCCc1ccc(S(=O)(=O)Nc2ccc(C)c(S(=O)(=O)N3CCOCC3)c2)cc1	.	.	.	0.7	-10	-6	6	2.6
Cc1ccc(C(=O)OCC(=O)NC2CCCC(C)C2C)cc1S(=O)(=O)N1CCCCC1 (stereo not given)	-0.6	-0.3	4	2.6	.	.	8	.
O=C(NNC(=O)c1ccco1)c1ccc(NS(=O)(=O)c2cccs2)cc1	0.2	-0.3	-3	0.6	-6	.	-9	-0.8
Nc1ccc(C(=O)OCC(=O)Nc2cccc(S(=O)(=O)NC3=NCCCCC3)c2)cc1[N+](=O)[O-]	0.3	3.1	-1	1.0	.	.	1	.
CCc1nnc(NC(=O)/C=C/c2cccs2)s1	0.9	0.7	-1	4.3	-21	5	-10	4.0
O=C(CSc1nnc(-c2ccc(O)cc2)o1)Nc1ccc2c(c1)OCCO2	0.6	0.9	-2	1.3	2	?	2	-2.5
COc1ccc(/C=C/C(=O)NC2CC3CCC2C3)cc1 (stereo not given)	2.1	-2.5	-5	0.2	-13	12	-5	1.1
Cc1ccc(CSC2=NCCN2C(=O)c2ccc([N+](=O)[O-])cc2)cc1	-2.0	1.3	10	4.0	18	4	3	-3.5
S=C(NCc1ccc2c(c1)OCO2)Nc1ccc(-c2nc3ccccc3[nH]2)cc1	-1.1	0.1	.	-5.0	15	17	30	-2.3
O=C(NC1CC1)c1scc2c1OCCO2	0.8	5.3	-5	0.2	-4	2	-16	1.7
CCOc1ccccc1CN1CCNC(=O)C1CC(=O)NCCCn1cccn1 (stereo not given)	-0.6	-2.6	-3	2.8	1	-5	7	-0.6
CN(C(=O)CN1CCN(c2ccc([N+](=O)[O-])cn2)CC1)c1ccccc1	1.8	2.2	5	.	-2	12	-1	-0.1
NNC(=O)C(=O)/C=C1\NC2(CCCC2)Cc2ccccc21	0.4	-3.6	-4	12	2	-25	0	6.2
O=c1[nH]c2ccccc2nc1-c1ccc(Cl)cc1	-2.0	4.9	-3	-45	-19	0	-4	0.9
CN1CCNC(=O)C1CC(=O)NCC1(c2ccccc2)CCCCC1 (stereo not given)	0.0	0.3	-20	1.0	-11	3	1	?
CCOC(=O)c1cc(=O)n2c(nc3ccccc32)[nH]1	-8.0	0.3	3	-328	-6	3	-7	0.3
CCOC(=O)N1CCC(N2C(=O)c3ccc(C(=O)Nc4ccc(F)cc4F)cc3C2=O)CC1	0.4	1.1	-1	3.3	-8	-3	-10	1.5
O=C(N/N=C/c1ccncc1)c1ccc(NS(=O)(=O)c2cccs2)cc1	-1.4	-1.8	-6	.	-3	-3	-6	0.2
COCC1CCN(C(=O)c2cc(COc3cncc(Cl)c3)on2)C1 (stereo not given)	-0.6	1.4	7	-1.0	4	21	6	6.0
CC(=O)c1ccc(NC(=O)C(C)N(C)CC(=O)Nc2ccc(Cl)cc2)cc1 (stereo not given)	0.1	-4.5	4	5.1	-3	-12	0	-3.6
CCOc1ccc2nc(NC(=O)CSc3nnc(-c4ccncc4)n3CC3CCCO3)sc2c1 (stereo not given)	0.1	-4.4	-1	3.4	-5	16	-3	4.9
Cc1ccc(CNS(=O)(=O)c2c(C)[nH]c(C)c2C(=O)N2CCCCC2)o1	0.7	2.6	.	4.1	-6	12	-1	1.1
C=CCN(CC=C)C(=O)c1ccncc1	0.0	4.4	.	0.1	-7	11	15	1.1
Cc1ccc(-n2c(-c3ccco3)nc3c(cnn3-c3ccccc3C)c2=O)cc1	0.6	-2.8	.	4.6	18	0	0	0.1
O=C(CN1C(=O)c2ccccc2C1=O)Nc1ccc(Cl)cn1	0.6	2.3	-11	3.8	-2	-20	6	-2.8
COc1cccc(/C=C2\NC(=O)NC2=O)c1O	-0.3	-1.0	6	7.4	-2	0	1	-0.1
CC(C)CNC(=O)c1cccc(NC(=O)C(C)Oc2ccccc2)c1 (stereo not given)	1.0	0.7	6	2.1	10	43	1	4.4
COc1ccc(C(C)=O)cc1CSc1ccc(S(=O)(=O)N2CCOCC2)cn1	0.1	-0.8	-3	3.4	.	.	1	.
Cc1ccnc(N2C(=O)c3ccccc3C2Nc2cccc(C)c2C)c1 (stereo not given)	0.8	-2.5	-1	5.0	8	14	-9	1.8
COc1ccccc1/C=C(\NC(=O)c1ccc(OC)c(OC)c1)C(=O)Nc1cccc([N+](=O)[O-])c1	0.4	-3.2	1	3.8	-2	-9	-2	1.0
Cn1c(=O)cc(N2CCc3ccccc32)[nH]c1=O	0.3	3.7	-1	7.9	4	-2	-1	4.7
Cc1cccc(OCC(=O)Nc2ccc3oc(=O)ccc3c2)c1C	0.2	0.0	3	-12	0	8	3	5.5
